Bioassay records (PubChem)
TRPML1 blocker: qHTS for Inhibitors of the Human Mucolipin Transient Receptor Potential 1 (TRPML1). Mucolipin-1 (Homo sapiens), Q9GZU1. TRPML1-inducible cells, Ca2+ dye fluorescence, FDSS; active compounds read low; inhibition of EC80 agonist-evoked calcium signal. activity change, negative = inhibition, % (concentration not given with the values). hit rate 0.02% among 390,000. AID 624415, 2012; in the data active means activity change below about -50%; inconclusive means about -30% to -50%; inactive means above about -30%;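 note: stimulus is agonist 54-4 at its EC80 concentration; % is set by controls: 0 for no effect and ±100 for the full control effect; the text of the record puts the active cut at -80%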
Target sequence (Q9GZU1 whole entry, looked up): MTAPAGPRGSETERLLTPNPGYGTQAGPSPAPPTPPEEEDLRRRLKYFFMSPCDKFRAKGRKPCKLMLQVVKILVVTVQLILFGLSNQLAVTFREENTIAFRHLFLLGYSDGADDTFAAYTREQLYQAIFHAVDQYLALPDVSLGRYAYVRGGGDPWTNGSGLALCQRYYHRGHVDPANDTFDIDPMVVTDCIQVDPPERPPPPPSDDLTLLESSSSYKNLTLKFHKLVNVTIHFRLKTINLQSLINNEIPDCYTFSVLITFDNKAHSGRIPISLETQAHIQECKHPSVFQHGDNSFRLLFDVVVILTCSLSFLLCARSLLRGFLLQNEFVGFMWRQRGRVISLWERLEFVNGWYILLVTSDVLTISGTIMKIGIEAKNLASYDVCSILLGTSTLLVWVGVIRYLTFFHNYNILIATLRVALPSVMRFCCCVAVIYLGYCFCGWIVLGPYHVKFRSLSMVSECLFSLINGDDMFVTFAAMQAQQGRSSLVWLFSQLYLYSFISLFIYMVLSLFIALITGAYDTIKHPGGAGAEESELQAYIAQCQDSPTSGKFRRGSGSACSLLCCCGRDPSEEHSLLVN
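Tet-induced TRPML1-DL cells loaded with Ca8 no-wash calcium dye were read kinetically on FDSS. Compound addition was followed by EC80 agonist 54-4 (4 uM final); inhibition was read over 110 s.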
Six1-Eya2 blk: qHTS Assay for Inhibitors of the Six1/Eya2 Interaction | Homeobox protein SIX1 (Homo sapiens) + Protein phosphatase EYA2 (Homo sapiens), … | AlphaScreen GST-Six1/His-Eya2 binding, biochemical; active compounds read low; control for the full effect not named in the record | activity change, % (test concentration not listed) | hit rate 0.56% among 360,000; in the data active = activity change below about -65%; inconclusive = about -30% to -65%; inactive = above about -30%; note: % is set by controls: 0 for no effect and ±100 for the full control effect
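AlphaScreen luminescence read after one hour at 37 °C in darkness. Pin-transferred compounds met GST-Six1 and His-Eya2 protein (5X stock 250 nM/500 nM) plus glutathione donor and Ni-chelate acceptor beads (5X, 50 ug/mL).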
D2 PAM: Beta-Arrestin HTS for Positive Allosteric Modulators of the Human D2 Dopamine Receptor: Potentiators. D(2) dopamine receptor (Homo sapiens), P14416. DiscoveRx D2 beta-arrestin cells, luminescence, 90 min; 100% = 57 uM dopamine signal. potentiation, % (no concentration beside the values). hit rate 0.23% among 360,000. AID 624464, 2012; active = potentiation of 50% or more; inconclusive = 30% to 50%; inactive = 30% or less;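 note: compound concentration not given in the record; tested on top of an EC20 dose of dopamine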
Target sequence (P14416 whole entry, looked up): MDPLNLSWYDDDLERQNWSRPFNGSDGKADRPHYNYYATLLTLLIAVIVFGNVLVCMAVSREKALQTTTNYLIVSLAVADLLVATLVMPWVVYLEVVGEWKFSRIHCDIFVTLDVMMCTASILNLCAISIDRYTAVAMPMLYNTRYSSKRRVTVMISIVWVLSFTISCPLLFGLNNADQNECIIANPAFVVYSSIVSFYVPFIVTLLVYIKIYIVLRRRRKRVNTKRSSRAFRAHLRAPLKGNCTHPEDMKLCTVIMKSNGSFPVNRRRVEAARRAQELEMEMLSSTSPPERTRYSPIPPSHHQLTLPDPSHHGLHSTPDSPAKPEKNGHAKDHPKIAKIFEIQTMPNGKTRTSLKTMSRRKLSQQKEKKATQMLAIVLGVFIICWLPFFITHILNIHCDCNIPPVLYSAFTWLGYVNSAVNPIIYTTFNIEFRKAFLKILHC
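D2 cells co-treated with compound plus 50 nM dopamine (EC20) for 90 min at 37 deg C to detect potentiation. Beta-arrestin recruitment was read as enzyme-fragment luminescence after 1 h at ambient temperature. Full response was set by 57 uM dopamine.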
TRPML1 ag: qHTS for Agonists of the Human Mucolipin Transient Receptor Potential 1 (TRPML1) | Mucolipin-1 (Homo sapiens), Q9GZU1 | TRPML1-expressing cells, Ca2+ dye fluorescence, FDSS; host cell line not named in the record; reference of the full effect not given here | activation, % (test concentration not listed) | hit rate 0.12% among 410,000; in the data active = activation above about 50%; inconclusive = about 30% to 50%; inactive = below about 30%; note: 0% is about no effect; the text of the record puts the active cut at 80%
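TRPML1-DL cells, Tet-induced overnight (~16 h, 37 degrees C), loaded 45-90 min at room temperature with Ca8 no-wash calcium dye plus quencher. FDSS fluorescence: 10 s baseline, compound pin-transfer, 110 s agonist read, then EC80 54-4 (4uM final) and 110 s antagonist read.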
TRPV1 potentiator: HTS Assay for Compounds that Act as Potentiators of the Vanilloid Receptor 1 | potentiation, % at 8.33 µM | TRPV1-expressing cells, Fluo-8 calcium influx, capsaicin EC20 potentiation; host cell line not named in the record; control for the full effect not named in the record | Transient receptor potential cation channel subfamily V member 1 (Homo sapiens), Q8NER1 | hit rate 0.02% among 320,000; active means potentiation above 80%; inconclusive means 30% to 80%; inactive means below 30%; note: 0% is about no effect
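Cells expressing TRPV1 were dye-loaded with Fluo-8 and read kinetically: 10 s baseline, 3 min after compound (agonist portion), then 2 min after EC20 capsaicin (allosteric enhancer portion). Calcium-bound dye fluorescence at 480/520 nm.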
CtBP-E1A inh: qHTS Assay for Inhibitors of the CtBP/E1A Interaction | AID 651724, 2012 | activity change, % (concentration not given with the values) | hit rate 0.49% among 340,000 | CtBP / adenovirus E1A interaction (AlphaScreen) | AlphaScreen GST-E1A/His-CtBP binding, 1536-well; active compounds read low; control for the full effect not named in the record; in the data active means activity change below about -65%; inconclusive means about -30% to -65%; inactive means above about -30%; note: % is set by controls: 0 for no effect and ±100 for the full control effect
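Homogeneous bead-based format: GST-tagged E1A captured on glutathione donor beads, His-tagged CtBP on nickel acceptor beads; compounds precede bead addition by 2 h at 37 °C.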
Starred values were filed as active, the others as inactive; ? = inconclusive; nt = no result given; & = joins results of further samples.

1: CCCC(CCC)C(=O)Nc1ccc2c(c1)N(C(=O)CN1CCN(C)CC1)c1ccccc1CC2
2: Cc1ccc(N=C2SC(C(=O)O)CC(=O)N2C)cc1C (configuration not stated)
3: O=C(NC(=S)Nc1ccc(O)cc1)c1ccccc1Cl
4: COc1ccc(S(=O)(=O)N2CCCCCC2)cc1NC(=O)Cc1n[nH]c(=O)c2ccccc12
5: O=C(COC(=O)c1cnccn1)NCCc1ccc(Cl)cc1

screen / no.	1	2	3	4	5
TRPML1 blocker	7	-9	22	6	-3
Six1-Eya2 blk	8	-1	10	-10	4
D2 PAM	-4	-7	-10	-12	18
TRPML1 ag	4.2	-0.7	4.6	-0.1	0.0
TRPV1 potentiator	-8	10	-4	18	-17
CtBP-E1A inh	-6	2	-6	-4	4

6: CCC(C)Nc1nc2c(c(=O)n(C)c(=O)n2C)n1C (configuration not stated)
7: Cc1oc(-c2cccs2)nc1CN1CCN(CCC(C)C)C(CCO)C1 (configuration not stated)
8: CCOC(=O)C1=C(CNCc2ccc(C)cc2)NC(=O)NC1c1ccc(OC)cc1 (configuration not stated)
9: Cc1ccc(-c2csc(=S)n2CC(=O)OCC(=O)NCc2ccco2)cc1
10: O=C1CC(N2CCN(c3ccccc3O)CC2)C(=O)N1Cc1ccccc1 (configuration not stated)

screen / no.	6	7	8	9	10
TRPML1 blocker	9	11	1	15	1
Six1-Eya2 blk	-6	1	-8	-11	5
D2 PAM	-7	-6	-41	-7	1
TRPML1 ag	1.0	-0.6	1.1	2.3	0.6
TRPV1 potentiator	-5	3	-5	-1	6
CtBP-E1A inh	-8	7	-14	-9	-1

11: COc1ccc(C(=O)OCC(=O)c2c(N)n(C)c(=O)n(C)c2=O)c(OC)c1OC
12: CCn1nc(C)c(CN2CCN(Cc3ccsc3)C(CCO)C2)c1C (configuration not stated)
13: O=Nc1c(-c2ccccc2)cc2ccccn12
14: Cc1nc2ccccc2c2nc(N)nn12
15: CC(C)OC(=O)CSc1ncnc2c1cnn2Cc1ccccc1

screen / no.	11	12	13	14	15
TRPML1 blocker	1	30	-12	6	2
Six1-Eya2 blk	-14	3	-11	-11	7
D2 PAM	-1	-4	-2	25	0
TRPML1 ag	1.6	0.9	1.1	-0.5	2.2
TRPV1 potentiator	nt	-7	21	-14	-4
CtBP-E1A inh	-8	-1	18	-5	13

16: Cc1ccc(-n2nnnc2-c2cccnc2)cc1
17: CC1CCCC(NC(=O)COC(=O)c2sc3ccccc3c2Cl)C1C (configuration not stated)
18: O=C(CSc1nc(=O)n(CCCN2CCOCC2)c2c1CCCC2)Nc1cccc(F)c1
19: CCN(CC)C(=O)CSc1nc(O)cc(=O)n1CC
20: CN(Cc1ccccc1)S(=O)(=O)c1ccc(NC(=S)NC(=O)C2CCCCC2)cc1

screen / no.	16	17	18	19	20
TRPML1 blocker	19	15	6	8	-19
Six1-Eya2 blk	7	-1	-5	2	-1
D2 PAM	-7	-1	-12	-7	-16
TRPML1 ag	-0.3	1.7	0.4	0.2	-0.2
TRPV1 potentiator	-1	8	5	-3	-34
CtBP-E1A inh	nt	6	6	8	0

21: Cc1cc(C)cc(-n2ncc3c2CCCC3NC(=O)C2(C(N)=O)CC2)c1 (configuration not stated)
22: CCN1CCN(C2=C(NS(=O)(=O)c3ccc(NC(C)=O)cc3)C(=O)c3ccccc3C2=O)CC1
23: CC(O)c1cccc(NC(=O)Nc2cccc(NC(=O)Nc3cccc(C(C)O)c3)c2)c1 (configuration not stated)
24: O=C1CCC(C(=O)OCC(=O)C23CC4CC(CC(C4)C2)C3)N1 (configuration not stated)
25: CCOC(=O)[C@H]1[C@H]2COc3ccc(OC)cc3[C@@H]2N2C(=O)c3ccc(F)cc3NC(=O)[C@@]12C

screen / no.	21	22	23	24	25
TRPML1 blocker	23	-3	7	0	3
Six1-Eya2 blk	-2	-19	-7	9	2
D2 PAM	-10	-17	-1	-2	-14
TRPML1 ag	-0.4	2.3	0.7	-0.1	-0.1
TRPV1 potentiator	-19	10	3	-4	3
CtBP-E1A inh	-4	nt	-3	8	-9

26: O=C(NC(=S)NNC(=O)c1ccccc1F)c1cccnc1
27: CC1(C)Cc2c(sc3c2c(=O)n(-c2ccc(Cl)cc2)c(=O)n3CC(N)=O)CO1
28: COc1ccccc1C(=O)NNC(=S)NC(=O)c1cc(OC)c(OC)c(OC)c1
29: Cc1ccc(-c2nc3ncccc3o2)cc1N
30: N#CCc1ccc(NC(=O)c2cc(S(=O)(=O)N3CCOCC3)ccc2Cl)cc1

screen / no.	26	27	28	29	30
TRPML1 blocker	-18	-1	12	-7	13
Six1-Eya2 blk	-18	27	-2	2	1
D2 PAM	-17	-15	-3	-25	-3
TRPML1 ag	0.0	0.7	5.1	-0.7	0.4
TRPV1 potentiator	-17	?	-8	2	-12
CtBP-E1A inh	-15	2	-15	nt	-26

Two compounds drawn at random from those above, as already listed:
2: Cc1ccc(N=C2SC(C(=O)O)CC(=O)N2C)cc1C (configuration not stated)
18: O=C(CSc1nc(=O)n(CCCN2CCOCC2)c2c1CCCC2)Nc1cccc(F)c1

screen / no.	2	18
TRPML1 blocker	-9	6
Six1-Eya2 blk	-1	-5
D2 PAM	-7	-12
TRPML1 ag	-0.7	0.4
TRPV1 potentiator	10	5
CtBP-E1A inh	2	6

An excerpt from above in order of formula weight, ascending.
28: COc1ccccc1C(=O)NNC(=S)NC(=O)c1cc(OC)c(OC)c(OC)c1
27: CC1(C)Cc2c(sc3c2c(=O)n(-c2ccc(Cl)cc2)c(=O)n3CC(N)=O)CO1
25: CCOC(=O)[C@H]1[C@H]2COc3ccc(OC)cc3[C@@H]2N2C(=O)c3ccc(F)cc3NC(=O)[C@@]12C

screen / no.	28	27	25
TRPML1 blocker	12	-1	3
Six1-Eya2 blk	-2	27	2
D2 PAM	-3	-15	-14
TRPML1 ag	5.1	0.7	-0.1
TRPV1 potentiator	-8	?	3
CtBP-E1A inh	-15	2	-9

Continued:
31: COc1ccc(/C(O)=C2/C(=O)C(=O)N(c3nc(C)c(C)s3)C2c2ccco2)cc1 (configuration not stated)
32: O=C(C1Cc2ccccc2CN1C(=O)c1ccccc1)N1CCN(c2ccccc2)CC1 (configuration not stated)
33: Clc1ccc(Nc2nc(-c3cccs3)cs2)nc1
34: O=C(CN1C(=O)c2ccccc2C1=O)Nc1ccccc1C(F)(F)F
35: Cc1csc(NC(=O)CSc2sc3c(O)cc(=O)[nH]c3c2C#N)n1

screen / no.	31	32	33	34	35
TRPML1 blocker	-5	-8	-7	-1	2
Six1-Eya2 blk	-8	-8	-10	5	?
D2 PAM	2	-10	-27	1	-2
TRPML1 ag	0.1	0.3	-0.7	-0.3	-0.5
TRPV1 potentiator	0	6	0	-1	-4
CtBP-E1A inh	-10	1	-8	1	-24

36: COCCCNC(=O)CN1C(=O)CSc2ccc(S(=O)(=O)N3CCOCC3)cc21
37: CCOc1ccc(C(C)=O)cc1CN1C(=O)NC2(CCCCCC2)C1=O
38: Cc1csc(=NC(=O)c2ccccc2)n1C
39: COc1ccc(C2NC(=O)CCC2[N+](=O)[O-])c(OC)c1OC (configuration not stated)
40: CCS(=O)(=O)N1CCCC(C(=O)NCc2cccc(OC)c2)C1 (configuration not stated)

screen / no.	36	37	38	39	40
TRPML1 blocker	-1&-6	30	2	-3	-26
Six1-Eya2 blk	0	-5	2	-1	1
D2 PAM	-1	-3	?	8	20
TRPML1 ag	-0.8&1.1	0.3	4.2	-0.4	-0.1
TRPV1 potentiator	-4	-15	-4	-2	-37
CtBP-E1A inh	nt	-12	8	nt	5

41: CCN1C(=NCC2CC2)N[C@@H](c2cccc(C(F)(F)F)c2)C(C(=O)OC)=C1C
42: O=C(CC1C(=O)NCCN1CC1CCCCC1)NCc1ccc(Cl)cc1 (configuration not stated)
43: O=C(NCc1ccccc1)C(=O)NCC(c1ccco1)N1CCOCC1 (configuration not stated)
44: O=C(CNC(=O)c1ccco1)Nc1ccncc1
45: CCOC(=O)/C(C#N)=C1/C=CN(Cc2ccccc2)C=N1

screen / no.	41	42	43	44	45
TRPML1 blocker	-14	5	-14	1	0
Six1-Eya2 blk	-13	3	-9	4	3
D2 PAM	-19	-1	7	-8	-15
TRPML1 ag	0.6	0.0	-0.4	0.7	-0.8
TRPV1 potentiator	4&30	8	0	17	-7
CtBP-E1A inh	12	nt	5	-24	0

46: CCOc1ccccc1NC(=O)COC(=O)C1CC(=O)N(c2c(C)cccc2C)C1 (configuration not stated)
47: Cn1cc(CC(=O)NCCCN2CCCC2)c2ccccc21
48: Cc1cccc(NC(=S)N(CCN(C)C)C(C)c2ccccn2)c1 (configuration not stated)
49: CC(=O)Nc1ccc(NC(=O)C2CCCN2C(=O)NC2CCCCC2)cc1 (configuration not stated)
50: O=C(O)/C=C/c1cn(-c2ccccc2)nc1-c1cc2ccccc2o1

screen / no.	46	47	48	49	50
TRPML1 blocker	37	4	-12	17	36
Six1-Eya2 blk	-4	0	?	6	-7
D2 PAM	-2	-6	-10	-5	4
TRPML1 ag	0.0	-0.4	0.5	-0.1	1.1
TRPV1 potentiator	24	1	6	8	19
CtBP-E1A inh	0	-1	?	1	-17

51: N#C/C(=C\c1ccccc1)C(=O)Nc1cc(S(=O)(=O)N2CCOCC2)ccc1N1CCCC1
52: O=C(Nc1ccc(O)cc1)C1CCCN1S(=O)(=O)c1ccc(F)cc1 (configuration not stated)
53: COC(=O)C(Cc1ccc(O)cc1)NC(=O)CCNC(=O)c1ccco1 (configuration not stated)
54: CN(C)c1ccc(CNn2cnnc2)cc1
55: O=C(c1ccc(N2CCOCC2)c([N+](=O)[O-])c1)N1CCN(c2ccccc2)CC1
56: CCn1c(NC(=O)c2cccs2)c(-c2cccs2)c(=O)c2ccccc21
57: CCN1C(=O)[C@H]2[C@@H](c3ccc(-c4ccc(OC)cc4)cc3)N[C@@](CC(C)C)(C(=O)OC)[C@H]2C1=O

screen / no.	51	52	53	54	55	56	57
TRPML1 blocker	31	3	-10	8	32	-2	-20
Six1-Eya2 blk	-10	0	7	-11	14	-1	-6
D2 PAM	-1	-2	-4	21	-2	-11	-9
TRPML1 ag	-0.7	2.9	-0.1	-0.3	0.3	0.2	-0.4
TRPV1 potentiator	1	-4	0	0	nt	-3	-70
CtBP-E1A inh	0	1	3	-14	-3	9	2
